Source: PubChem
GLA inh pH 4.5: inhibitors of human alpha-galactosidase A at pH 4.5; 230,000 tested, under 10 active; purified enzyme, 4-MU-alpha-Gal fluorescence, pH 4.5; P06280; activity change, negative = inhibition, % at 105 µM; AID 1467; inconclusive = small, poorly fitted or top-dose-only inhibition, or a rising curve; inactive = flat fitted curve, though single readings scatter; no compound was filed as active;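 note: 0% = full activity with enzyme and -100% = basal without enzyme; dose as in the result columns while the protocol names 77 µM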
Rango-impB inh: Rango-importin beta binding inhibition; Q14974; Rango CFP/YFP FRET sensor + importin beta, 45 min; Potency, µM (doses to about 92.2 µM), inactives show top-dose inhibition of complex formation; 340,000 tested, 0.031% active; active = rising FRET ratio curve, often small or poorly fitted; inconclusive = mostly compound fluorescence or quenching in the first reads; inactive = flat curves in all reads;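 note: potency is the fitted concentration of half-maximal effect; 0% = DMSO wells and 100% = buffer wells lacking importin beta; nearly all actives have a fitted effect of over 15% in size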
Target sequence (Q14974 whole entry, looked up): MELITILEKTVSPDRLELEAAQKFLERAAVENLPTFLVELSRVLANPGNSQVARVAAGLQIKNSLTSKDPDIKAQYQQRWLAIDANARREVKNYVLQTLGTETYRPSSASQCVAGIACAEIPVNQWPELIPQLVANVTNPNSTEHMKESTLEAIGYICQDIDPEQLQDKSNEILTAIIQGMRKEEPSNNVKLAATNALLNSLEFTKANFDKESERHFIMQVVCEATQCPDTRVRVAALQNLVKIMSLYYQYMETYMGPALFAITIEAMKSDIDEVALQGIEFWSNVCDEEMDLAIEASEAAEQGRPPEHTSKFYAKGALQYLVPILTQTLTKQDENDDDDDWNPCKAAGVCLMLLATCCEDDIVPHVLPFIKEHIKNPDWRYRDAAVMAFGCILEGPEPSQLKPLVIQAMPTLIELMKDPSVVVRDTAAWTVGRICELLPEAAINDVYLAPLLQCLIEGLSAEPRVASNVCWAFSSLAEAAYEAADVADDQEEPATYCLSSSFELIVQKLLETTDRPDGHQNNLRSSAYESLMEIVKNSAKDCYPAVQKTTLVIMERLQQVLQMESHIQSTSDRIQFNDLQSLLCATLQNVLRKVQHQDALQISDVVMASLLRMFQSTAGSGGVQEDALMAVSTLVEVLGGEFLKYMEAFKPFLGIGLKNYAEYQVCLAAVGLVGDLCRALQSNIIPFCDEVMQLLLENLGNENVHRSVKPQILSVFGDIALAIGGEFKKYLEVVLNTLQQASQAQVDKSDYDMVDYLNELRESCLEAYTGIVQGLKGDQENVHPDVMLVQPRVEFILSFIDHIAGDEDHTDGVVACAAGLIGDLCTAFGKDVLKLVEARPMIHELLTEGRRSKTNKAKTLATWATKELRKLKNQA
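FRET biosensor (snurportin 1 IBB flanked by EYFP and cerulean), 50 nM, with compound 5 min, then 0.125 microM importin beta in PBS, 1 mM DTT, 0.02% Tween-20, 0.1% BSA. CFP/YFP ratio read after 45 min at room temperature; pre-read flags interference.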
miR-21 FLuc: raises the signal of a miR-21 reporter | Potency, µM (titrated, usually from 38.3 µM), for inactives: top-dose reporter change, positive = more light | 340,000 tested, under 10 active | HeLa miR-21 FLuc reporter, luciferase, 48 h | AID 2288; active = well fitted rising curve with a large enough effect; inconclusive = small, poorly fitted or top-dose-only effect; inactive = no such curve, though single readings can be large or run the other way;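 note: % of control where 0% means no effect; miR-21 action dims this reporter so a rising signal means less miR-21 action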
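HeLa cells endogenously expressing miR-21, stably carrying CMV-driven firefly luciferase with a downstream miR-21 binding site, 2000 cells/well. Titrations up to approximately 40 uM, 48 hours; luciferase luminescence read.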
Rango release inh: inhibition of RanGTP-driven Rango-importin beta dissociation | Potency, µM (top dose mostly 46.1 µM), for the others: at the top dose activity change, negative = inhibition | 340,000 tested, 0.071% active | Biochemical FRET Rango-importin beta, RanGTP-induced dissociation | O95149+P62826; active means falling FRET ratio curve, often poorly fitted, with flat reads before Ran was added; inconclusive means other falling curves, or compound fluorescence or quenching; inactive means flat or rising ratio curve;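 note: potency is the fitted concentration of half-maximal effect; % of control where 0% means no effect; nearly all actives have a fitted effect of over 45% in size; -100% = wells without RanGTP and RCC1; the record marks most hits as doubtful in a second field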
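Recombinant Rango FRET biosensor (EYFP–snurportin 1 IBB–cerulean CFP10) at 0.1 uM premixed with 0.25 uM importin beta in PBS, 1 mM DTT, 0.02% Tween-20, 0.1% BSA. Compound added 5 min; RanGTP-RCC1 (0.6 uM Ran, 2 mM GTP, 0.2 uM RCC1) then triggers release, read at 45 min.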
Active calls of the source: *; ? = inconclusive; · = not tested or not shown; & = joins results of further samples. These rows are one share of the data, so the mix of outcomes need not match the whole.

The line under a structure holds: GLA inh pH 4.5	Rango-impB inh	miR-21 FLuc	Rango release inh
> CC(C)C[C@H](NC(=O)[C@@H]1CCCN1C(=O)[C@@H](N)Cc1ccc(O)cc1)C(=O)NCC(N)=O
 : 3	4.4%	-1%	-8%
> CN1CCN(C(=O)Cc2ccccc2)CC1
 : -2	1.7%	2%	-12%
> CCOc1ccc2nc(N(CCN(CC)CC)C(=O)c3ccc([N+](=O)[O-])cc3)sc2c1
 : 7	3.9%	-1%	3%
> CCN1C(=O)NC(=O)C2(CCCC2)C1=O
 : ·	1.1%	·	8%
> Cc1cc(OCC(=O)N2CCC(C(=O)O)CC2)c2c3c(c(=O)oc2c1)CCC3
 : ·	0.2%	1%	12%
> CC1(C)CN=C(NCc2ccccc2Cl)S1
 : -5	-0.4%	-27%	-6%
> O=C(Cn1ncc2c3ccccc3n(Cc3ccccc3F)c2c1=O)N1CCC2(CC1)OCCO2
 : 11	-0.2%	-7%	13%
> O=P1(NC2CCCC2)COc2ccccc2OC1
 : 3	1.6%	-10%	-19%
> O=C(CCC(=O)N1C[C@H]2C[C@@H](C1)c1cccc(=O)n1C2)NCc1ccc(F)cc1
 : ·	-1.6%	·	1%
> CN1CCC(OC(=O)C2c3ccccc3Oc3ccccc32)CC1
 : 10	4.0%	-8%	6%

Gathered by group, the compounds so far containing four or more nitrogen atoms.
The line under a structure holds: GLA inh pH 4.5	Rango-impB inh	miR-21 FLuc	Rango release inh
> CC(C)C[C@H](NC(=O)[C@@H]1CCCN1C(=O)[C@@H](N)Cc1ccc(O)cc1)C(=O)NCC(N)=O
 : 3	4.4%	-1%	-8%
> CCOc1ccc2nc(N(CCN(CC)CC)C(=O)c3ccc([N+](=O)[O-])cc3)sc2c1
 : 7	3.9%	-1%	3%
> O=C(Cn1ncc2c3ccccc3n(Cc3ccccc3F)c2c1=O)N1CCC2(CC1)OCCO2
 : 11	-0.2%	-7%	13%

Remaining list, next part
The line under a structure holds: GLA inh pH 4.5	Rango-impB inh	miR-21 FLuc	Rango release inh
> O=C(OC1CC2CCC(N2)C1C(=O)O)c1ccccc1 (configuration not stated)
 : ·	-1.1%	·	-9%
> CCC1(C)Cc2ccccc2-c2c1c(=O)n(Cc1ccccc1)c1nnnn21 (configuration not stated)
 : 3	?	-3%	2%
> O=C(c1ccc(CS(=O)(=O)c2ccccc2)o1)N1CCC2(CC1)OCCO2
 : 2	-0.4%	-2%	-15%
> COc1ccc(F)cc1C(=O)C1CCCN(Cc2cnc(C)s2)C1 (configuration not stated)
 : -1	5.0%	0%	4%
> COc1cccc(C2CC3C(=O)C=CC2N3Cc2ccccc2)c1 (configuration not stated)
 : 0	?	0%	-6%
> CN1C2CCC1CC(OC(=O)c1ccc([N+](=O)[O-])cc1)C2 (configuration not stated)
 : -4	-4.3%	-6%	-2%
> CCCCn1c(=O)c(C(=O)NCc2ccncc2)c(O)c2ccccc21
 : -2	-0.8%	-17%	2%
> O=[N+]([O-])c1ccc2nc(N3CCNCC3)ccc2c1
 : -16	-1.6%	·	-18%
> O=c1[nH]c(=O)n(C2CCCCCC2)c(O)c1C=NCC1CCCO1 (configuration not stated)
 : -2	-1.6%	-5%	-3%
> O=C1NC(=O)C(=Cc2cc([N+](=O)[O-])ccc2N2CCCCC2)C(=O)N1
 : -3	3.3%	3%	0%
> C[C@]12C[C@H](O)[C@@H](O)CC1=CCC1C2CC[C@@]2(C)C1CC[C@@H]2O (some centres not stated)
 : ·	-0.3%	·	-7%
> CC1(C)C2([N+](=O)[O-])CN3CC1([N+](=O)[O-])CN(C2)C3c1ccccn1 (configuration not stated)
 : -6	-1.4%	-1%	-4%
> Cc1[nH]c2ccccc2c1C(=O)C(=O)N1CCC2(CC1)OCCO2
 : -2	0.0%	0%	-23%
> CCc1ccc(N2C(=O)NC(=O)/C(=C\c3cc(C)n(-c4cc(C(=O)O)cc(C(=O)O)c4)c3C)C2=O)cc1
 : ·	?	1%	?
> CCOC(=O)c1sc(=NC(=O)c2ccc(C)c(C)c2)n(C)c1C
 : 0	-1.0%	-36%	0%
> Cc1cccc(N2CCN(CCc3ccccc3)CC2)c1C
 : 8	3.0%	-2%	-9%
> COC(=O)C1=C(c2ccc(C(C)=O)cc2)C[C@@H]2CC[C@H]1N2C(=O)NC1CCCCC1
 : ·	1.2%	·	-5%
> O=c1c2ccccc2nc(-c2ccccc2F)n1-c1ccccc1
 : ·	-0.6%	4%	6%
> COC(=O)C1=C(c2ccc(-c3ccccc3)c(F)c2)C[C@@H]2CC[C@H]1N2C(=O)NCc1ccco1
 : ·	0.3%	·	-8%
> COc1ccc(-n2c(C)cc(C(=O)C[N+]34CCN(CC3)CC4)c2C)cc1
 : 0	-1.1%	2%	0%
> COc1ccc(C(C)=O)cc1CC(C(=O)c1ccc(Br)cc1)N(C)C (configuration not stated)
 : -5	-3.8%	-15%	-12%
> O=[N+]([O-])c1ccc(S(=O)(=O)NN=C2CCCCC2)cc1
 : ·	5.9%	·	42%
> O=[N+]([O-])c1ccc(Nc2ccccc2)cc1
 : 13	-5.1%	-19%	-20%
> CCN1C(=O)NC(=O)/C(=C\c2ccc(N3CCOCC3)cc2OC)C1=O
 : 4	·	-5%	·
> Clc1ccc(-c2nc3ccc(Cl)cn3c2CN2CCOCC2)cc1
 : -6	-4.5%	3%	11%
> Oc1ccc(CCN2CCCCC2)cc1
 : ·	2.9%	·	17%
> N[C@@H](Cc1ccccc1)C(=O)N1C[C@H]2C[C@@H](C1)c1cccc(=O)n1C2
 : ·	0.3%	-1%	?
> Cc1ccccc1N1CCN(C2CCCN(C(=O)COc3ccccc3)C2)CC1 (configuration not stated)
 : ·	-3.4%	11%	0%
> COc1ccc(CN2CCCC(C(=O)c3ccc(Cl)cc3)C2)c(O)c1 (configuration not stated)
 : ·	-5.2%	0%	-11%
> COc1cccc(CN2CCNCC2)c1OC
 : ·	0.1%	0%	17%
> Cc1ccc(N2C(=O)NC(=O)/C(=C\c3cc(C)n(-c4sc5c(c4C#N)CCCC5)c3C)C2=O)cc1
 : 6	-2.4%	2%	-6%
> O=C(NN=Cc1ccc(N(CCCl)CCCl)cc1Cl)c1cccnc1
 : ·	?	·	-17%
> CCn1c(O)c(C(=O)CC2NCCc3ccccc32)c(=O)n(CC)c1=S (configuration not stated)
 : ·	0.5%	-3%	-15%
> Cc1cc(C)cc(N2C(=O)NC(=O)/C(=C\C=C\c3ccco3)C2=O)c1
 : -8	?	25%	-33%
> CCCCn1c(=O)c(C(=O)Nc2ccc(C)cn2)c(O)c2ccccc21
 : ·	-0.4%	0%	14%
> O=C(c1cc(F)ccc1F)C1CCCN(Cc2cc(Cl)ccc2O)C1 (configuration not stated)
 : ·	2.2%	4%	-10%
> C=CCN1C(=O)NC(=O)/C(=C/c2ccc(N(C)C)c(Br)c2)C1=O
 : 8	5.8%	1%	-6%
> CC1N=C(c2ccccc2)c2cc(Br)ccc2NC1=O (configuration not stated)
 : ·	0.0%	-10%	-5%
> CN(C)C1(CNC(=O)c2cc(S(=O)(=O)N3CCOCC3)c(Cl)cc2Cl)CCCCC1
 : ·	-1.3%	·	0%
> Cc1nc2ccc(Cl)cc2c(=O)n1-c1ccccc1Cl
 : ·	2.1%	2%	11%
> CCCNC(=O)N1[C@H]2CC[C@@H]1C(C(=O)OC)=C(c1ccc(Cl)c(C(F)(F)F)c1)C2
 : ·	0.4%	·	13%
> O=P(Oc1ccc(Cl)cc1)(N1CC1)N1CC1
 : ·	-3.3%	·	-2%
> CC(C)Cc1nnc(NC(=O)CCC(=O)N2CCN(CCOC(c3ccccc3)c3ccccc3)CC2)s1
 : -9	-11%	24%	1%
> CCC(=O)N1N=C(c2c(O)n(CCc3ccccc3)c(=O)[nH]c2=O)CC1c1ccc(OC)c(OC)c1 (configuration not stated)
 : -4	-0.8%	-1%	-11%
> CN1C(=O)N(C)C(=O)C2(Cc3c(nc4ccccn4c3=O)N3CCC(Cc4ccccc4)CC32)C1=O (configuration not stated)
 : 10	·	-3%	·
> CCC(C)(C)n1nnnc1C(c1cccs1)N1CC=C(c2ccc(F)cc2)CC1 (configuration not stated)
 : 1	1.7%	-1%	7%
> ClCCNc1nc2ccc(Cl)cc2[nH]1
 : 3	0.1%	-32%	-10%
> C[C@@H]1CC[C@H]2[C@@H](C)C(=O)O[C@@H]3O[C@@]4(C)CC[C@@H]1[C@]32OO4
 : ·	-2.5%	18%	2%
> COc1ccccc1-n1c(-c2ccccc2Cl)nc2ccccc2c1=O
 : ·	-4.8%	0%	0%
> COC(=O)C1=C(c2ccccc2)C[C@@H]2CC[C@H]1N2C(=O)NCc1ccco1
 : ·	-0.2%	·	0%

(cont.)
The line under a structure holds: GLA inh pH 4.5	Rango-impB inh	miR-21 FLuc	Rango release inh
> O=C1NC(=O)C(C/C=C/c2ccccc2)C(=O)N1
 : 1	-1.3%	-1%	-1%
> N=c1c2c(n(Cc3ccc(Cl)cc3Cl)c3c1CCC3)CCCC2
 : 6	0.2%	?	-12%
> O=[N+]([O-])c1ccc(-c2ccccc2)c([As](=O)(O)O)c1
 : -4	0.4%	25%	8%
> COc1cccc(-c2cc(C(F)(F)F)n3nc(C(=O)N4CCC5(CC4)OCCO5)cc3n2)c1
 : 0	-2.3%	-1%	?
> Cc1ncc([N+](=O)[O-])n1CCOC(N)=O
 : -5	-0.5%	1%	-10%
> COc1ccc(-c2cc(=O)oc3c(C)c(OC(C)C(=O)N4C[C@H]5C[C@@H](C4)c4cccc(=O)n4C5)ccc23)cc1 (some centres not stated)
 : ·	?	-10%	6%
> O=c1c2ccccc2nc(/C=C/c2ccccc2)n1-c1ccc(O)cc1
 : ·	?	12%	-3%
> Fc1ccc(C(OCCN2CCCC2)c2ccc(Br)cc2)cc1 (configuration not stated)
 : -1	-1.2%	-4%	20%
> Cc1nc2ccccc2c(=O)n1-c1ccc(-c2ccccc2)cc1
 : ·	-3.9%	16%	15%
> O=C1C(=O)c2cccc3cccc1c23
 : 9	1.2%	1%	17%
> COC(=O)C1C2c3ccccc3C(c3ccccc32)C1(C)C(=O)OC (configuration not stated)
 : ·	1.0%	·	-4%
> CCN1CCN(CC(=O)c2c(C)n(Cc3ccccc3)c3ccc(OC)cc23)CC1
 : -2	0.8%	-9%	-9%
> Oc1ccc(Cl)cc1
 : 7	-1.6%	·	4%
> COC(=O)C1C(OC(=O)c2ccccc2)CC2CCC1N2C (configuration not stated)
 : -1&-1	?	2%	8%&21%
> Cc1ccc2c(c1)C1CN(C)CCC1N2C(=O)Cc1cccs1 (configuration not stated)
 : 5	1.7%	-10%	-16%
> CC[n+]1c(-c2ccccc2)c2cc(N)ccc2c2ccc(N)cc21
 : -10&-1	1.6%	·	-12%
> COc1ccccc1-n1c(-c2ccc(C)cc2)nc2ccccc2c1=O
 : ·	3.0%	1%	-14%
> CC(C)CC1(CCc2ccccc2)C(=O)NC(=O)NC1=O
 : ·	-2.1%	·	10%
> O=c1[nH]c(=O)n(-c2cccc(Cl)c2)c(O)c1/C=N/c1ccccn1
 : -3	2.4%	-3%	9%
> CCCc1cc(=O)oc2cc(OCC(=O)N3CCC(C(=O)O)(c4ccccc4)CC3)ccc12
 : ·	-1.6%	1%	17%
> O=C1CC[C@@]2(O)[C@H]3Cc4ccc(O)c5c4[C@@]2(CCN3CC2CC2)[C@H]1O5
 : ·	-0.2%	-25%	-3%
> CC[N+](CC)(CC)CCCOC(=O)C(O)(c1ccccc1)C1CCCCC1 (configuration not stated)
 : -3	0.9%	-6%	6%
> CCOC(=O)c1c(N)n(Cc2ccco2)c2nc3ccccc3nc12
 : ?	?	-1%	?
> O=c1c2cc(N3CCOCC3)ccc2[nH]c(=S)n1Cc1ccc(Cl)cc1
 : 2	?	-51%	?
> O=C(O)C1C2c3ccccc3C(=O)C1(C(=O)O)c1ccccc12 (configuration not stated)
 : ·	4.0%	·	-2%
> CC(N)Cc1cn(Cc2ccccc2)c2ccccc12 (configuration not stated)
 : ·	0.1%	4%	-6%
> CC12CCC(=O)C=C1CCC1C2C(O)CC2(C)C(O)CCC12 (configuration not stated)
 : ·	-0.5%	·	19%
> CN(C)C(=O)Oc1ccc(OCc2n(C)c3ccccc3[n+]2C)cc1
 : 7	-2.9%	1%	0%
> O=c1cccc2n1CC1CC2CN(c2ncnc3c2cnn3-c2ccccc2)C1 (configuration not stated)
 : 5	5.1%	-11%	7%
